CtBP-E1A blk – blocks the CtBP interaction with E1A; AlphaScreen GST-E1A/His-CtBP binding, 1536-well; hits give low values; control for the full effect not named in the record; hit rate 0.49% among 340,000; activity change, % (test concentration not listed); in the data active means activity change below about -65%; inconclusive means about -30% to -65%; inactive means above about -30%; note: % is set by controls: 0 for no effect and ±100 for the full control effect; compound concentration not given in the record
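AlphaScreen with 125 nM GST-E1A and 125 nM His-CtBP (5X stocks) in Tris pH 8.0, 300 mM NaCl, BSA, Tween 20, TCEP. Compounds preincubated 2 h at 37 deg C, then glutathione donor/nickel acceptor beads added for 1 h at 37 deg C in dark.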
D2 PAM – potentiates the human D2 dopamine receptor allosterically; P14416; hit rate 0.23% among 360,000; potentiation, % (concentration not given with the values); DiscoveRx D2 beta-arrestin cells, luminescence, 90 min; 100% = 57 uM dopamine signal; active = potentiation of 50% or more; inconclusive = 30% to 50%; inactive = 30% or less;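 note: compound concentration not given in the record; tested on top of an EC20 dose of dopamine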
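D2 cells co-treated with compound plus 50 nM dopamine (EC20) for 90 min at 37 deg C to detect potentiation. Beta-arrestin recruitment was read as enzyme-fragment luminescence after 1 h at ambient temperature. Full response was set by 57 uM dopamine.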
D2 ag – activates the human D2 dopamine receptor; activation, % (concentration not given with the values); P14416; hit rate 0.084% among 360,000; DiscoveRx PathHunter D2 beta-arrestin, luminescence, 90 min; 100% = 57 uM dopamine signal; in the data active = activation above about 40%; inconclusive = about 15% to 40%; inactive = below about 15%; note: compound concentration not given in the record; the text of the record calls up to 30% inactive
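DiscoveRx PathHunter D2 beta-arrestin cells (2,100/well) attached overnight, then compound-stimulated 90 min at 37 C in HBSS/10 mM HEPES/0.1% Tween-20 buffer; beta-galactosidase complementation read by luminescence after 1 h at ambient temperature. Dopamine 57 uM final (EC100) as control.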
gsp ag – activates gsp, the McCune-Albright syndrome mutation; hit rate 0.13% among 340,000; gsp mutant cells, cAMP HTRF, 30 min; control for the full effect not named in the record; AID 624287; Potency, µM (top dose mostly 76.9 µM), without a hit: top-dose activation (cAMP increase), actives largely listed as activators; active = well fitted activation curve with a large enough effect; inconclusive = small, poorly fitted or top-dose-only effect, or another doubt; inactive = no such curve, though single readings can be large or run the other way; cell line not stated here;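 note: phosphodiesterase inhibitor Ro 20-1724 added with compounds to block cAMP breakdown; potency is the fitted concentration of half-maximal effect; nearly all actives have a fitted effect of over 60% in size; about a fifth of the inactives were tested at one dose only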
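Cells in DMEM/10% FBS with G418 were pretreated with compounds in DMSO plus […] (300 uM stock) for 30 min at 37C. cAMP was measured by HTRF (cAMP-d2 plus anti-cAMP antibody-K) after 30 min at room temperature.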
gsp antag – gsp mutant antagonism; gsp-mutant cells, cAMP HTRF, 30 min; control for the full effect not named in the record; Potency, µM (doses to about 76.9 µM), inactives show top-dose activity change, negative = inhibition, most hits filed as inhibitors; hit rate 0.4% among 340,000; active = falling curve of any shape with a large fitted effect; inconclusive = falling curve, mostly with a smaller effect; inactive = flat or rising curve; cell line not stated here;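 note: intracellular cAMP measured with PDE inhibitor Ro 20-1724 present during compound exposure; potency is the fitted concentration of half-maximal effect; % is set by controls: 0 for no effect and ±100 for the full control effect; nearly all actives have a fitted effect of over 65% in size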
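Measurement of cellular cAMP by homogeneous time-resolved fluorescence following a 30 min compound exposure at 37C. The PDE inhibitor […] was present throughout; the assay buffer was DPBS with 0.05% BSA and 0.005% Tween 20.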
Six1-Eya2 blk – inhibitors of human Six1/Eya2 interaction | Q15475+O00167 | AlphaScreen GST-Six1/His-Eya2 binding, biochemical; hits give low values; control for the full effect not named in the record | activity change, % (no concentration beside the values) | hit rate 0.56% among 360,000 | AID 651725; in the data active = activity change below about -65%; inconclusive = about -30% to -65%; inactive = above about -30%; note: % is set by controls: 0 for no effect and ±100 for the full control effect; compound concentration not given in the record
Target sequence (O00167 whole entry, looked up): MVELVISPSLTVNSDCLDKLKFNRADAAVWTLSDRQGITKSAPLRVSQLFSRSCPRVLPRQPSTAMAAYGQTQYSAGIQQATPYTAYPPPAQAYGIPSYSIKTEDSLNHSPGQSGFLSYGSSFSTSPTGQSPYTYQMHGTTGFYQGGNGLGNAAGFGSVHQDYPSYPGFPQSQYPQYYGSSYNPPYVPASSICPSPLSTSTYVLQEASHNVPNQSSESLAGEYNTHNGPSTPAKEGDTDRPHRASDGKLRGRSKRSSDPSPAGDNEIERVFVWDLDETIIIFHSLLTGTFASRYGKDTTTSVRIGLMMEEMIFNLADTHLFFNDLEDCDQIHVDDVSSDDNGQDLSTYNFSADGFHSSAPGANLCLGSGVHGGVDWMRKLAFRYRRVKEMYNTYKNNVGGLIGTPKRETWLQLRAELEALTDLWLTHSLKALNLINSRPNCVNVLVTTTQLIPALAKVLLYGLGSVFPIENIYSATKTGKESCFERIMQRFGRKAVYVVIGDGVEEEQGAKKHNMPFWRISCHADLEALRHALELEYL
Target sequence (Q15475 whole entry, looked up): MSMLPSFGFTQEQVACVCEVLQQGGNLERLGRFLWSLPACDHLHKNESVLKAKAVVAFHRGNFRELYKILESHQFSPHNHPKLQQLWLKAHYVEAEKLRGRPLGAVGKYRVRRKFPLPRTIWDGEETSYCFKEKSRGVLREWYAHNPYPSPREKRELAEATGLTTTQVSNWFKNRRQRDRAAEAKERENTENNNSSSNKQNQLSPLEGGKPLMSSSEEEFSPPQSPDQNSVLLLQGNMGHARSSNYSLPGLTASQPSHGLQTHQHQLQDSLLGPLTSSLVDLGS
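AlphaScreen with GST-Six1 and His-Eya2 (5X mix: 250 nM and 500 nM), glutathione donor and nickel acceptor beads; buffer 50 mM Tris pH 8.0, 300 mM NaCl, 1 mM TCEP; 1 h at 37 C in the dark.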
Starred values were filed as active, the others as inactive; ? = inconclusive; / = not tested or not shown; [ ] = dose if it differs, or a comment. An unsorted share of the library; 1.4% or so of the library scored in one or more.

SMILES	CtBP-E1A blk	D2 PAM	D2 ag	gsp ag	gsp antag	Six1-Eya2 blk
Cc1ccc(C(=O)NCCN2CCOCC2)cc1Cl	-5.0	-17.0	-1.7	0.6%	1.3%	-10.7
CCCCn1nnnc1SCC(=O)Nc1ccc(N(C)C)cc1	-5.6	-17.1	-1.0	-17.6%	-24.4%	-6.8
CC1(C(=O)O)CCC(C(=O)Nc2ccc(S(N)(=O)=O)cc2)C1(C)C (configuration not stated)	1.2	0.8	-3.2	-61.0%[inhibitor]	2.7%	-1.6
O=C(CCCSc1ccccc1)Nc1nc(-c2ccco2)c(-c2ccco2)s1	-23.2	-7.4	2.7	-16.9%	-9.4%	?
CCOc1cccc2cc(C(=O)Nc3ccccc3-c3ccccc3)c(=O)oc12	6.6	-0.8	1.1	-35.0%[inhibitor]	11.3%	-2.8
Cc1c(NC(=O)CN2C(=O)NC(C)(c3ccc(Cl)cc3)C2=O)c(=O)n(-c2ccccc2)n1C (configuration not stated)	6.6	-19.9	-1.8	-3.4%	-1.1%	4.1
CCOc1ccc(OCCOCCOc2ccccc2Cl)cc1	4.6	-1.4	-3.5	?	-4.8%	36.4
CC(C)(C)OC(=O)N1CSC[C@H]1C(=O)NC[C@H](CC(=O)O)c1ccc(Cl)cc1	0.5	-4.2	-4.1	-13.5%	3.2%	-0.2
CCN(CC)S(=O)(=O)c1ccc(-c2nnc(SCC(=O)N3CCOCC3)o2)cc1	7.9	-6.3	-2.6	-41.3%[inhibitor]	-19.6%	0.9
COc1ccc2c(c1)c(CCN1C(=O)c3ccccc3C1=O)cn2C(=O)c1ccco1	3.2	7.6	-0.4	5.9%	-4.3%	0.4
Cc1ccccc1NC(=O)c1ccc(F)c(S(=O)(=O)N2CCN(c3ccccn3)CC2)c1	-5.4	-6.4	-2.3	4.7%	?	-1.6
COc1ccc(-c2cn3cc(C)ccc3n2)cc1Br	-23.4	-2.2	-1.9	1.6%[15.4 µM]	?	-4.3
COc1cccc(NC(=O)CCN2C(=O)c3ccccc3S2(=O)=O)c1	6.6	-6.4	-1.1	-9.7%	11.2%	3.2
COc1ccc(C(=S)N2CCOCC2)cc1OS(=O)(=O)c1ccc(Br)cc1	-3.5	-32.6	0.5	5.5%[15.4 µM]	-3.4%	-14.0
N#Cc1ccccc1Sc1ccccc1C(=O)OCC(=O)NC1CCCCC1	-5.7	-8.4	1.6	-17.0%	5.3%	8.9
COc1ccc2cc(C#N)c(SCC(=O)Nc3nonc3C)nc2c1	-6.5	2.7	1.2	?	4.8%	-13.8
Cc1cc(NS(=O)(=O)c2ccc(NC(=O)C(C)Oc3ccc(C(C)C)cc3)cc2)no1 (configuration not stated)	1.9	-3.7	-5.0	9.6%[15.4 µM]	-15.3%	7.9
COc1ccc(C(=O)Nc2ccccc2C(=O)Nc2ccc(C(=O)O)cc2)cc1	-12.1	-14.4	-0.3	3.0%[15.4 µM]	-11.4%	0.0
CC1(C(=O)NCCc2ccccc2)Cc2c(-c3cccc(C(N)=O)c3)ccnc2O1 (configuration not stated)	-6.5	-4.0	2.6	/	/	-12.4
Cc1ccc(C)c(Nc2nc3ccccc3n3cnnc23)c1	/	-7.6	2.6	0.1%	-2.8%	-0.2

Gathered by group: the compounds so far with two or more sulfur atoms (3)
SMILES	CtBP-E1A blk	D2 PAM	D2 ag	gsp ag	gsp antag	Six1-Eya2 blk
O=C(CCCSc1ccccc1)Nc1nc(-c2ccco2)c(-c2ccco2)s1	-23.2	-7.4	2.7	-16.9%	-9.4%	?
CCN(CC)S(=O)(=O)c1ccc(-c2nnc(SCC(=O)N3CCOCC3)o2)cc1	7.9	-6.3	-2.6	-41.3%[inhibitor]	-19.6%	0.9
COc1ccc(C(=S)N2CCOCC2)cc1OS(=O)(=O)c1ccc(Br)cc1	-3.5	-32.6	0.5	5.5%[15.4 µM]	-3.4%	-14.0

(more compounds)
SMILES	CtBP-E1A blk	D2 PAM	D2 ag	gsp ag	gsp antag	Six1-Eya2 blk
O=C(OCC#CCSc1nnc(-c2cccc3ccccc23)o1)c1cccs1	34.9	-0.8	-2.2	-13.7%	-8.8%	28.7
O=C(NCCc1ccccc1)c1ccccc1Cl	-2.8	-22.0	-5.0	4.1%[15.4 µM]	-5.0%	-13.3
CC(=O)C1=C(O)C(=O)OC1c1ccc(Cl)cc1 (configuration not stated)	-0.7	3.0	-1.3	?	4.5%	5.1
COc1ccc2[nH]cc(C=O)c2c1	-0.4	-4.4	0.0	0.0%	4.7%	-0.4
COc1cc2ccc(C=O)cc2cc1OC	-3.8	-21.4	0.1	?	/	-7.9
O=C(CSc1nc2cc(Cl)ccc2s1)c1ccco1	12.5	-7.5	-3.7	-10.8%	-1.8%	5.7
O=C(Nc1cccc(Cl)c1)OCCN1CCN(Cc2ccccc2)CCC1=O	1.1	-13.2	0.5	/	-0.7%	1.2
CCN(CC)c1ccc(/C=N/n2nnnc2N)c(O)c1	-1.2	-3.9	-4.2	-31.1%[inhibitor]	5.0%	5.0
CNc1nc(N)c(C(=O)Nc2cc(C)on2)s1	0.0	-6.8	-4.0	2.7%[15.4 µM]	-24.1%	5.1
CC(=O)c1cccc(NC(=O)Cn2cnc(S(=O)(=O)N3CCC(C)CC3)c2)c1	/	-2.6	-3.2	-3.5%	-1.5%	-1.0
COC(=O)c1ccc(CNC(=O)C2CCC(=O)N(CCCc3ccccc3)C2)cc1 (configuration not stated)	-15.1	-4.5	7.3	-38.8%	-5.3%	6.3
CC(C)(C)c1nnc2sc(SC/C(O)=C(\C#N)c3nc4ccccc4[nH]3)nn2c1=O	-13.6	-12.5	-1.1	25.8%	0.3%	-9.9
Cc1cc(S(=O)(=O)Nc2c(NC3CCCCC3)c3ccccc3oc2=O)ccc1F	/	-17.2	-3.6	14.0%	?	4.3
O=C(NCCCN1CCCC1=O)c1cccc(S(=O)(=O)N2CCN(c3ccccc3)CC2)c1	3.5	-2.4	-3.0	-0.5%	-7.9%	1.6
COC(=O)c1ccccc1NC(=O)CSc1nnc(-c2cccnc2)n1C	6.4	6.6	-2.5	-39.3%[inhibitor]	-11.1%	-0.6
Cc1cc(/N=C/C=C2\N(C)c3ccccc3C2(C)C)n(CCC#N)n1	9.6	-10.1	-0.3	2.1%	-15.7%	-14.8
CCN1CCN(CCn2c(=S)[nH]c3cc4c(cc3c2=O)OCO4)CC1	2.9	-19.4	-3.4	?	-3.1%	2.0
Cc1c(Br)c([N+](=O)[O-])nn1CC(=O)NCCc1ccc(Cl)cc1	0.2	-13.0	-4.4	-3.2%	1.0%	1.9
COc1cc(CNCc2cccs2)ccc1OCc1cccs1	7.9	-21.1	3.9	-21.9%	5.1%	1.1
Cc1cccc(NC(=O)N[C@@H](C)C(=O)O)c1	10.4	-7.5	-3.2	1.1%	5.3%	6.4

Four entries from above, with the structure last:
| CtBP-E1A blk | D2 PAM | D2 ag | gsp ag | gsp antag | Six1-Eya2 blk | Molecule |
| --- | --- | --- | --- | --- | --- | --- |
| 2.9 | -19.4 | -3.4 | ? | -3.1% | 2.0 | CCN1CCN(CCn2c(=S)[nH]c3cc4c(cc3c2=O)OCO4)CC1 |
| / | -17.2 | -3.6 | 14.0% | ? | 4.3 | Cc1cc(S(=O)(=O)Nc2c(NC3CCCCC3)c3ccccc3oc2=O)ccc1F |
| 12.5 | -7.5 | -3.7 | -10.8% | -1.8% | 5.7 | O=C(CSc1nc2cc(Cl)ccc2s1)c1ccco1 |
| -13.6 | -12.5 | -1.1 | 25.8% | 0.3% | -9.9 | CC(C)(C)c1nnc2sc(SC/C(O)=C(\C#N)c3nc4ccccc4[nH]3)nn2c1=O |

Later entries
SMILES	CtBP-E1A blk	D2 PAM	D2 ag	gsp ag	gsp antag	Six1-Eya2 blk
CC(C)(C)CC(=O)NC(=S)NCc1ccccc1	24.6	-2.2	-2.1	-6.5%	9.7%	9.7
CC1=C(C(=O)OC(C)C)C(c2cccc(F)c2)N2C(=O)C(C)SC2=N1 (configuration not stated)	2.0	-19.9	-4.2	-31.9%[inhibitor]	-16.0%	0.9
NS(=O)(=O)c1ccc(NC(=O)CCCC(=O)O)cc1	/	24.7	4.0	-7.2%	0.5%	4.2
CCOc1ccc(S(=O)(=O)N2CCN(C(=O)CCC(=O)N3CCOCC3)CC2)cc1	0.8	1.5	3.0	6.4%[15.4 µM]	9.2%	6.6
O=C(NC(Cc1ccccc1)C(=O)O)c1ccc(S(=O)(=O)N2CCOCC2)cc1 (configuration not stated)	4.7	-1.8	-0.6	6.6%	3.6%	3.0
CCNCCC(=O)N1c2ccccc2Sc2ccc(NC(=O)OCC)cc21	-1.0	-24.1	-6.5	-53.5%[inhibitor]	8.8%	2.9
Cn1c(CCN2CCOCC2)nc2cc(NC(=O)COc3ccc([N+](=O)[O-])cc3)ccc21	2.3	-0.1	0.1	?	-15.6%	-0.3
COC(=O)c1cc([N+](=O)[O-])ccc1N1CCN(Cc2ccccc2)CC1	-15.8	-33.1	-1.7	8.3%	-6.9%	-13.9
CCc1noc(C)c1C(=O)N1CCCC(C(=O)c2ccc(OC)c(F)c2)C1 (configuration not stated)	-2.8	-3.5	-2.6	2.9%	8.0%	6.7
COc1cc2cnncc2cc1OC	-12.1	-14.3	0.3	-13.8%	12.4%	-0.2
COc1ccccc1-n1c(SCC(=O)Nc2cc(C)on2)nc2c([nH]c3ccccc32)c1=O	-13.7	4.1	-3.0	13.1%[15.4 µM]	12.0%	?
O=C(c1ccccc1)c1ccc(N2CCN(C(=O)c3cccc(F)c3F)CC2)c(F)c1	1.5	-1.4	-1.1	?	39.8µM*	4.2
Oc1c(Cl)cc(Cl)c2cccnc12	-90.3*	-3.6	-2.4	?	8.9%	-90.4*
Cc1ccc(NC2=NCC(=O)N2Cc2ccc3c(c2)OCO3)cc1	7.3	-4.4	-7.0	-8.9%[15.4 µM]	6.1%	0.6
COc1ccc2c(=O)cc(-c3cccnc3)oc2c1OC	18.3	-7.0	0.6	5.4%[15.4 µM]	5.3%	-1.1
Cc1cccc(C(=O)N/N=C/c2ccc3c(c2)OCO3)n1	-1.8	-11.1	-3.7	0.1%	-4.2%	-4.4
CCC1(CC)NC(=O)N(CC(=O)OCC(=O)Nc2ccc(OC(F)(F)F)cc2)C1=O	2.0	-2.9	-0.2	15.6%	8.2%	-1.5
O=C(/C(=N\Nc1ccc(Br)cc1)Sc1nnnn1-c1ccccc1)c1ccccc1	-11.7	-13.0	-1.4	4.0%[15.4 µM]	-8.6%	-19.2
COc1cc(/C=N/Nc2cc(C)nc(NS(=O)(=O)c3ccccc3)n2)ccc1O	-73.4*	5.3	-0.6	-11.0%[15.4 µM]	-6.0%	-71.0*
COc1cccc(CCNC(=O)C2CCCN(c3ncnc4c3nc3n4CCCCC3)C2)c1OC (configuration not stated)	11.7	-6.9	3.2	27.8%	5.7%	3.4

From PubChem
